LASV entry inh – blocks Lassa virus binding to or entry into cells. Lassa virus pseudotype entry inhibition, cell reporter; control for the full effect not named in the record. Potency, µM (titrated, usually from 37.9 µM), inactives show at the top dose activity change, negative = inhibition, usual class: inhibitors. 300,000 compounds, 1.2% hits. AID 540256; active means well fitted inhibition curve with a large enough effect; inconclusive means small, poorly fitted or top-dose-only effect, or effect the other way; inactive means flat fitted curve, though single readings scatter; tested in HEK293 cells; further: on the % scale 0 is the no-effect control and ±100 the full control effect; nearly all actives have a fitted effect of over 50% in size; luciferase read-out
Cruzain noTriton – inhibitors of Trypanosoma cruzi cruzain without detergent | P25779 | purified cruzain, Z-FR-AMC fluorescence, no detergent | Potency, µM, inactives show max response, negative = inhibition, most hits filed as inhibitors | 200,000 compounds, 2.3% hits | AID 1476;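 further: plate controls were enzyme without inhibitor for no effect and buffer without enzyme for full effect; nearly all actives have a fitted effect of over 40% in size; top concentration of the series not given in the record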
Target sequence (P25779 123-467 limits assumed): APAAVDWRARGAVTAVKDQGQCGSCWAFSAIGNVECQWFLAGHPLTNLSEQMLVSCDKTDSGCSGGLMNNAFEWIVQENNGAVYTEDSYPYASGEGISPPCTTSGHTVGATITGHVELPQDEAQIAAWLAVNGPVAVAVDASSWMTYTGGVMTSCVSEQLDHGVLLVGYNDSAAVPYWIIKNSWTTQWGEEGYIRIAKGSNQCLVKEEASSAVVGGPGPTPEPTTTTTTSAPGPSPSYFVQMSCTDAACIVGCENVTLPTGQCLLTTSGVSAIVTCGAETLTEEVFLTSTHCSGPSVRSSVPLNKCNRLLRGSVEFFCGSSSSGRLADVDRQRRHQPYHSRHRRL
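Detergent-free condition (0.00005% Triton X-100) in acetate buffer pH 5.5 with DTT. 1.5 nM enzyme and compound were pre-mixed 15 min, then 2 uM Z-FR-AMC substrate added; reaction progress from fluorescence change between first and third reads (60 s).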
RE007 growth inh – less growth of the S. pombe RE007 Vpr strain | S. pombe RE007 Vpr strain, BacTiter-Glo ATP luminescence, 24 h; control for the full effect not named in the record | Potency, µM (top dose mostly 92.2 µM), inactives show top-dose activity change, negative = less growth | 360,000 compounds, 0.21% hits | AID 651644; active = well fitted falling curve with a large enough effect; inconclusive = small, poorly fitted or top-dose-only effect; inactive = no such curve, though single readings can be large or run the other way;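 further: on the % scale 0 is the no-effect control and ±100 the full control effect; nearly all actives have a fitted effect of over 50% in size; the assay follows cell death caused by Vpr and the record does not say whether a fall means rescue or toxicity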
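Fission yeast strain RE007, carrying one chromosomally integrated HIV-1 vpr copy, was seeded at OD 0.01 in PMG+AL medium with 23 nL pinned compound. After 24 h at 30 °C and 99% humidity, viability was read by BacTiter-Glo luminescence.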
NS1 function inh – blocks influenza NS1 protein function. S. cerevisiae slowed by influenza A NS1, growth recovery by OD600. Potency, µM (highest dose often 46.1 µM), for the others: at the top dose activity, positive = more growth. 270,000 compounds, 0.4% hits; active means well fitted rising curve with a large enough effect; inconclusive means small, poorly fitted or top-dose-only effect; inactive means no such curve, though single readings can be large or run the other way; further: nearly all actives have a fitted effect of over 50% in size
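OD600 was taken as the measure of yeast growth restored by compound in an NS1-expressing S. cerevisiae strain. Cells had been washed out of glucose medium and diluted 1:100 into galactose -URA medium, pH 6.0.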
Cruzain inh Det – cruzain (T. cruzi) inhibition with detergent; Potency, µM, for inactives: max response, negative = inhibition, usual class: inhibitors; AID 1478; P25779; purified cruzain, Z-FR-AMC fluorescence, 0.01% Triton; 200,000 compounds, 0.43% hits;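 further: plate controls were neutral wells for no effect and buffer without enzyme for full effect; nearly all actives have a fitted effect of over 40% in size; top concentration of the series not given in the record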
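Detergent-containing arm of a paired screen for aggregation-based inhibition: 0.01% Triton X-100 present. Cruzain at 1.5 nM cleaved 2 uM Z-FR-AMC at pH 5.5 with 5 mM DTT; AMC fluorescence gain over 60 s measured activity.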
SARS PLpro yeast – SARS-CoV PLP inhibition in yeast. S. cerevisiae expressing SARS-CoV PLpro, growth rescue; control for the full effect not named in the record. Potency, µM (highest dose often 32.9 µM), without a hit: at the top dose activity, positive = growth rescue. 330,000 compounds, 0.19% hits; active means well fitted rising curve with a large enough effect; inconclusive means small, poorly fitted or top-dose-only effect; inactive means no such curve, though single readings can be large or run the other way; further: 0% is about no effect; nearly all actives have a fitted effect of over 55% in size; growth read by luminescence after 48 h
MARV entry inh – blocks Marburg virus binding to or entry into cells; 300,000 compounds, 1.8% hits; Potency, µM (titrated, usually from 37.8 µM), inactives show at the highest dose activity change, negative = inhibition, most hits filed as inhibitors; Marburg virus pseudotyped entry inhibition, cell reporter; control for the full effect not named in the record; about a third of the inactives were read at about 46 µM; active = well fitted inhibition curve with a large enough effect; inconclusive = small, poorly fitted or top-dose-only effect, or effect the other way; inactive = flat fitted curve, though single readings scatter; tested in HEK293 cells; about a fifth of its hits are not listed in these tables; further: on the % scale 0 is the no-effect control and ±100 the full control effect; luciferase read-out
StopGo reporter – FMDV 2A StopGo reporter, luciferase signal; human cells with a luciferase reporter of 2A StopGo recoding; control for the full effect not named in the record; 410,000 compounds, 1.2% hits; Potency, µM (titrated, usually from 57.9 µM), without a hit: at the highest dose signal change, negative = less light; active = well fitted falling curve with a large enough effect; inconclusive = small, poorly fitted or top-dose-only effect; inactive = no such curve, though single readings can be large or run the other way; tested in HEK293T cells; further: on the % scale 0 is the no-effect control and ±100 the full control effect; nearly all actives have a fitted effect of over 45% in size; luciferase light after 4 h
An asterisk follows results filed as active; u = inconclusive; x = no result given; & = joins results of further samples; [ ] = dose if it differs, or a comment. Unless noted, the call rests on the fitted dose curve; in most records, active means well fitted curve in the direction sought with a large enough effect; inconclusive means small, poorly fitted or top-dose-only effect, or another doubt; inactive means no such curve, though single readings can be large; an effect the other way counts as inactive or inconclusive. Potency means the concentration at half of the fitted maximal effect.

SMILES	LASV entry inh	Cruzain noTriton	RE007 growth inh	NS1 function inh	Cruzain inh Det	SARS PLpro yeast	MARV entry inh	StopGo reporter
O=S(=O)(N/N=C1/CC(c2ccccc2)Oc2ccccc21)c1ccc(Br)cc1 (stereo not drawn)	-4%	u	-20%	-8%	-3.1%	-14%	u	-5%
Cc1nc(C(=O)O)nn1-c1ccc([N+](=O)[O-])cc1	2%	x	-7%	6%	x	0%	-2%[46.1 µM]	7%
CCOC(=O)CCSc1cc(C)c2ccccc2n1	x	x	-26%	-3%	x	-1%	x	2%
Nc1nc2ccc(Cl)cc2[nH]1	-14%[46.1 µM]	x	4%	x	x	x	13%[46.1 µM]	5%
COc1cn(-c2ccccc2)nc1C(=O)NCc1ccccc1	u	x	7%	-34%	x	-20%	4%[46.1 µM]	-17%
CCN(CC(=O)Nc1ccc(OC)cc1)C(=O)c1cc(S(=O)(=O)N2CCOCC2)ccc1N1CCCC1	-28%	x	3%	x	x	1%	7%	-3%
CCSC1=C(C#N)C2(CCCCC2)C(C#N)C(=O)N1 (stereo not drawn)	-11%	4%	-2%	4%	1.0%	9%	-1%	0%
CC(C)(C)c1cc(CCC(=O)N2CCCC2)cc(C(C)(C)C)c1O	x	x	-4%	18%	x	-1%	x	0%
N#C/C(=C\c1c(N2CCC(C(N)=O)CC2)nc2ccccn2c1=O)S(=O)(=O)c1ccc(Cl)cc1	-14%[46.1 µM]	x	-1%	-3%	x	0%	8%[46.1 µM]	10%
O=C(Nc1ccccc1Cl)c1ccc(Cl)cc1Cl	0%[46.1 µM]	x	-1%	x	x	2%	20%[46.1 µM]	28%
CCOc1ccc(Nc2nc3c(S(=O)(=O)c4cccc(Cl)c4)nnn3c3ccsc23)cc1	-18%[46.1 µM]	3%	x	x	-0.7%	x	x	-14%
CSc1nnc(-c2cnccn2)n1Cc1ccccc1	6%	-6%	2%	-10%	3.2%	-1%	26%	-15%
COc1ccc2c(c1)C1(Nc3ccccc3-c3nc4ccccc4n31)C(=O)N2C (stereo not drawn)	-4%	6%	-3%	5%	-9.2%	-5%	-23%	-19%
CC(C)CCNC(=O)C1CCN(c2nnc(-n3cccc3)s2)CC1	x	-2%	-1%	-5%	-6.4%	3%	x	-17%
O=C(CSCc1ccc(Br)cc1)N=Nc1c(O)[nH]c2ccccc12	u	5%	-14%	-11%	-2.8%	-3%	u	-23%
CCCCOc1ccc(N(CC(=O)NCC2CCCO2)C(=O)CCC(=O)Nc2cc(C)ccn2)cc1 (stereo not drawn)	23µM*	u	-3%	-15%	-3.9%	-33%	u	-23%
COC(=O)[C@@H]1C[C@@]2(O)[C@H](O)[C@H](O)[C@H](O)C[C@H]2N1Cc1ccc(C(C)(C)C)cc1	x	4%	4%	2%	0.9%	0%	x	-12%
NC(=O)c1nsc(C(=O)N(c2ccccc2)C(C(=O)NC2CCCC2)c2ccncc2)c1N (stereo not drawn)	x	x	9%	3%	x	0%	-7%[46.1 µM]	6%
Cn1c(CNc2ccc(F)cc2)nc2ccccc21	21%[46.1 µM]	x	-9%	-12%	x	-2%	5%[46.1 µM]	20%
COC(=O)C1CCN(CC(N)=O)CC1	23%	-1%	4%	-1%	3.5%	-13%	9%[46.1 µM]	-2%
CCCOc1ccc(N2C(=O)CC(NCC#N)C2=O)cc1 (stereo not drawn)	u	x	4%	6%	x	-4%	-6%	-14%
CCc1ccc(-n2c(O)c(C=NCCN(CC)CC)c(=O)[nH]c2=O)cc1	8%	-8%	5%	4%	-0.2%	-12%	0%	-14%
COc1ccccc1/C=N/NC(=O)c1cc2c(ccc3ccccc32)o1	u	x	2%	6%	x	-7%	u	-6%
OC1(c2ccccc2)Cc2cccc[n+]2C1c1ccccc1 (stereo not drawn)	x	x	1%	-2%	x	1%	x	0%
CCCc1ccc(OCCNC(=O)c2ccco2)cc1	x	x	-26%	-51%	x	-3%	x	28%
CCCC(=O)Nn1cnc2c(c1=O)C1(CCCC1)Cc1ccccc1-2	1%	-5%	-10%	-9%[9.22 µM]	-13%	-5%	-27%&-27%[46.1 µM]	-13%
COC(=O)c1ccc(CNC(=O)N2CCN(S(=O)(=O)c3ccc(C)cc3)CC2)cc1	-11%[46.1 µM]	x	10%	-17%	x	-7%	-1%[46.1 µM]	-10%
Cc1ccc(S(=O)(=O)N2CCOCC2)cc1NC(=O)C1CC(=O)N(c2ccc3c(c2)OCCO3)C1 (stereo not drawn)	-14%	x	19%	x	x	3%	u	-7%
Cc1ccc(S(=O)(=O)Nc2ccc(C(=O)NCc3ccncc3)cc2)cc1	-9%	x	-9%	-2%	x	5%	1%	8%
O=C(Nc1cccc(S(=O)(=O)c2cccc(NC(=O)c3ccco3)c2)c1)c1ccco1	u	x	19%	3%	x	1%	u	35µM*
CCCOC(=O)CSc1nc(N)c(C#N)c(-c2ccco2)c1C#N	29%	x	11%	x	x	x	u	u
COc1ccc(NC(=O)CSc2nnc(-c3ccco3)n2C)cc1	27%	-2%	10%	-4%	1.1%	6%	4%	-20%
CCc1nnc(NS(=O)(=O)c2ccc(NC(=S)NC(=O)c3cccnc3)cc2)s1	9%	x	6%	11%	x	1%	u	0%
COc1ccc(N(CC(=O)Nc2cc(Cl)ccc2OC)S(=O)(=O)c2c(C)[nH]c(=O)[nH]c2=O)cc1	0%[46.1 µM]	x	-3%	1%	x	-1%	3%[46.1 µM]	-13%
C/C(=N/NC(=O)CN1CCN(S(=O)(=O)c2ccc(C)cc2)CC1)c1ccco1	x	x	4%	-2%	x	0%	x	-3%
Cc1ccc(S(=O)(=O)N2CCN(C(=O)Cc3ccc4c(c3)OCCO4)CC2)cc1C	1%	-10%	1%	6%	-3.3%	-3%	u	-16%
Cc1cccc2sc(NC(=O)CN3C(=O)C4CC=CCC4C3=O)nc12 (stereo not drawn)	1%	x	-14%	x	x	1%	27%[46.1 µM]	4%
Cc1cc(F)ccc1S(=O)(=O)Nc1ccccc1C(=O)Nc1ccc2[nH]c(=O)[nH]c2c1	u	29%	0%	0%	-6.3%	x	-15%&-15%	5%
O=c1cc2c(n[nH]1)CCCC2	u	2%	-30%	-5%	1.7%	-12%	-13%	-6%
Cc1cccc(CNC(=O)c2cc(S(=O)(=O)N3CCOCC3)cn2C)c1	-4%[46.1 µM]	x	-2%	-2%	x	1%	25%[46.1 µM]	-9%
COc1ccc(CCNC(=S)NCc2cccs2)cc1OC	x	x	23%	1%	x	-1%	x	7%
C/C(=N/Nc1ccc([N+](=O)[O-])cc1)c1ccc(C)cc1C	-15%	x	u	x	x	-2%	-46%	16%
COc1ccc(C(=O)NCC(=O)N2CCCC(C)C2)cc1OC (stereo not drawn)	11%	x	4%	x	x	-1%	14%[46.1 µM]	3%
O=C(CCc1ccccc1)Nc1ccccc1C(=O)NCc1ccco1	u	-5%	25%	-7%	-6.7%	19%	-2%	-11%
CCNC(=O)CSc1nc2ccccc2c(=O)n1CCCOC(C)C	15%	7%	-6%	-14%	1.8%	-3%	-25%	10%
COc1ccc(C2=C(N)c3ccccc3C2=O)cc1	0%	8%	-18%	-6%	2.9%	-14%	22%	x
C=C(C)c1cccc(C(C)(C)NC(=O)N2CCN(c3ccccn3)CC2)c1	x	3%	1%	-20%	1.3%	2%	x	-14%
CCOc1ccc(N2CC(O)=C(c3ccccc3)C2=N)cc1	u	x	10%	-2%	x	-3%	-13%[46.1 µM]	7%
CCOc1ccc(Nc2nc(-c3sc(N)nc3C)cs2)cc1	-2%[46.1 µM]	x	-14%	16%	x	-7%	u	3%
O=C1CCC(C(=O)N2CCC(O)CC2)CN1CCc1ccc(Cl)cc1 (stereo not drawn)	0%	x	-6%	6%	x	-1%	u	-18%
O=C(CSc1nc(=O)n(CCCN2CCOCC2)c2c1CCC2)Nc1ccc(F)cc1F	-2%	x	3%	x	x	-1%	u	-12%
CC(=O)c1cc(-c2ccc(F)cc2)n(CC(=O)NC2CCCCCC2)c1C	9%[46.1 µM]	-1%	x	x	1.0%	x	x	2%

Ten entries from above, in CSV form:
structure,LASV entry inh,Cruzain noTriton,RE007 growth inh,NS1 function inh,Cruzain inh Det,SARS PLpro yeast,MARV entry inh,StopGo reporter
Cc1cccc(CNC(=O)c2cc(S(=O)(=O)N3CCOCC3)cn2C)c1,-4%[46.1 µM],x,-2%,-2%,x,1%,25%[46.1 µM],-9%
COc1ccc(CCNC(=S)NCc2cccs2)cc1OC,x,x,23%,1%,x,-1%,x,7%
C/C(=N/Nc1ccc([N+](=O)[O-])cc1)c1ccc(C)cc1C,-15%,x,u,x,x,-2%,-46%,16%
COc1ccc(C(=O)NCC(=O)N2CCCC(C)C2)cc1OC (stereo not drawn),11%,x,4%,x,x,-1%,14%[46.1 µM],3%
O=C(CCc1ccccc1)Nc1ccccc1C(=O)NCc1ccco1,u,-5%,25%,-7%,-6.7%,19%,-2%,-11%
CCNC(=O)CSc1nc2ccccc2c(=O)n1CCCOC(C)C,15%,7%,-6%,-14%,1.8%,-3%,-25%,10%
COc1ccc(C2=C(N)c3ccccc3C2=O)cc1,0%,8%,-18%,-6%,2.9%,-14%,22%,x
C=C(C)c1cccc(C(C)(C)NC(=O)N2CCN(c3ccccn3)CC2)c1,x,3%,1%,-20%,1.3%,2%,x,-14%
CCOc1ccc(N2CC(O)=C(c3ccccc3)C2=N)cc1,u,x,10%,-2%,x,-3%,-13%[46.1 µM],7%
CCOc1ccc(Nc2nc(-c3sc(N)nc3C)cs2)cc1,-2%[46.1 µM],x,-14%,16%,x,-7%,u,3%

Assay outcomes as filed in PubChem.
